Yeast UUG start: modulators of yeast start codon fidelity, primary screen, whole organism, S. cerevisiae, single point, plate reader | S. cerevisiae UUG-firefly luciferase reporter, luminescence/redox ratio | activity score, % at 18.7 µM | actives 0.13% (n = 350,000) | AID 602363, 2012;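 active means replicate mean at a twofold rise or more, about +100% in these data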;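 further: firefly luciferase made from a UUG start codon reports start codon fidelity; reporter light over untreated wells divided by growth signal over untreated wells; some hits fall short of that in this replicate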
eIF4H inh: human eIF4H binding inhibitors, primary screen, translation initiation inhibitor project, biochemical, uHTS, fluorescence polarization. Eukaryotic translation initiation factor 4H (Homo sapiens), Q15056. eIF4H fluorescence polarization binding assay. inhibition, % at 35 µM. actives 0.94% (n = 290,000);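 active means 50% or more with normal probe brightness, or confirmed in later tests; inconclusive means above 50% with abnormal brightness, or retests that disagree; inactive means below 50% or failed in later tests; about a fifth of its hits are not listed in these tables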;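 further: calls also rest on retests at 20 µM and on dose response follow-up; 0% = protein and probe with vehicle and 100% = probe without protein; strong numbers were not always called active; many hits fall short of the cut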
HIV Env fusion: inhibitors of HIV-1 Env-driven cell-cell fusion, primary screen, HeLa-JRFL effector, CEM21 target cells, luciferase; AID 651610, 2012; actives 1.1% (n = 360,000); inhibition, % at 12.3 µM;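 active means mean replicate inhibition score of at least 50 and every replicate individually at or above 50; inconclusive means only one of the two criteria met; inactive means mean below 50 and not all replicates reaching 50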;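 further: 0% = plate neutral controls and 100% = maraviroc near 300 nM; one replicate is shown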
Rce1 inhib: yeast Rce1p protease inhibitors, primary screen, biochemical, fluorescence, cell-free homogeneous; CAAX prenyl protease 2 (Saccharomyces cerevisiae (strain ATCC 204508 / S288c)), Q03530; calls only; actives 0.27% (n = 290,000); yeast membranes, quenched prenylated peptide cleavage fluorescence;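 active means fall in fluorescence gain of 50% or more versus controls, with final raw signal at or below 3038400; inconclusive means same 50% fall but final raw signal above 3038400; inactive means fall in fluorescence gain under 50%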;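 further: plate controls were neutral control wells for no effect and wells lacking membranes for full effect; tested at 10 µM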
Target sequence (Q03530 whole entry, looked up): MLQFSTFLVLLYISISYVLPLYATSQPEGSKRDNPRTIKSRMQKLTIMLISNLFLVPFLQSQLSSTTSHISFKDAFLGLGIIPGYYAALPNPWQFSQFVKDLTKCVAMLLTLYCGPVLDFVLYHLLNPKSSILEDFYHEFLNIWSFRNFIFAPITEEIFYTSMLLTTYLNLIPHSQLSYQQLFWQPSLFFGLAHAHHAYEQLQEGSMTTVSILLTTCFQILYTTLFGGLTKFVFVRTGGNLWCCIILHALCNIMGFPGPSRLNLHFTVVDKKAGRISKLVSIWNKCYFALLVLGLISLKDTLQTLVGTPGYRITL
CSC inhib: cancer stem cell viability inhibitors, primary screen, luminescence | actives 1.1% (n = 300,000) | cancer stem cell-like cells viability | inhibition, % at 7.5 µM | AID 2717, 2010;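 active means mean at 75% or more and at least half the replicates too; inconclusive means mean and replicates disagree; tested in HMLE shEcad cells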;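 further: 0% = median of negative and 100% = median of positive control wells; the first replicate is given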
PABP polyA inh: PABP poly(A) RNA binding inhibitors, primary screen, biochemical, fluorescence polarization, uHTS; inhibition, % at 35 µM; Polyadenylate-binding protein 1 (Homo sapiens), P11940; actives 1% (n = 290,000); AID 2014, 2009;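 active means 50% or more with normal probe brightness, or confirmed in later tests; inconclusive means above 50% with abnormal brightness, or retests that disagree; inactive means below 50% or failed in later tests; about a fifth of its hits are not listed in these tables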;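 further: calls also rest on retests at 20 µM and on dose response follow-up; controls were probe without protein and protein plus probe with vehicle; some compounds called inactive have numbers as strong as hits; many hits fall short of the cut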
MT1-MMP act inh: blockers of MT1-MMP proenzyme processing, primary screen, HT1080 RFP-PRO-GFP cells, GFP/RFP fluorescence; GFP/RFP ratio change, % at 20 µM; actives 0.061% (n = 360,000); Matrix metalloproteinase-14 (Homo sapiens), P50281; GFP/RFP ratio fluorescence, overnight; percent of plate control window, DMSO zero; AID 651647, 2012;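 active means GFP/RFP ratio change of at least 30% with cell ATP level not reduced by more than half and red fluorescence within 50% of control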; further: strong numbers were not always called active
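Assay system: RFP-PRO-GFP reporter HT1080 cells; read-out basis: GFP/RFP fluorescence ratio; benchmarks: DMSO wells and RFP-L50D-GFP cells; doses: 20 µM single dose, 1% DMSO; schedule: overnight cell settling, then overnight compound exposure, 37 °C, 5% CO2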
eIF4H inh retest: second read-out of eIF4H inh, no call of its own (marks repeat the call); inhibition, %; compound at 20 µM; confirmation average;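 mean of two retest wells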
PABP polyA inh retest: also measured in PABP polyA inh; calls as there; inhibition, %; compound at 20 µM; confirmation repeats;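 mean of two retest wells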
MT1-MMP act inh RFP: second read-out of MT1-MMP act inh, no call of its own (marks repeat the call); RFP signal change, %; measured here: RFP expression control read;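 0 = vehicle wells; hits needed this value within 50% of zero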
An asterisk follows results filed as active; i = inactive; ? = inconclusive; · = no result given. This is a subset. The share of hits here may be higher or lower than overall.

SMILES	Yeast UUG start	eIF4H inh	HIV Env fusion	Rce1 inhib	CSC inhib	PABP polyA inh	MT1-MMP act inh	MT1-MMP act inh RFP	others
CCN(C[C@H]1N[C@@](CC)(C(=O)OC)[C@H]2C(=O)N(C)C(=O)[C@@H]12)C(=O)Nc1ccc(F)cc1	-29	·	-45	·	-21	·	4	5
CCC1(C)Cc2ccccc2-c2nc(NN)[nH]c(=O)c21 (stereo not given)	-6	0	1	i	-3	-7	-3	-2
CC1(C)CC(=O)N(Cc2ccccc2)C(=O)C1	·	-4	2	i	-12	5	4	6
O=C(Cn1[nH]c(=O)c2ccccc2c1=O)Nc1ccc(-c2nnc3n2CCCCC3)cc1	-20	0	·	i	-5	-7	-1	0
CCN1CCN(S(=O)(=O)c2ccc(Cl)c(C(=O)N(C)CC(=O)Nc3c(C)cccc3C)c2)CC1	-15	·	-1	·	·	·	4	2
C#CCOCCOCCOCCNc1nc(N2CCN(C(=O)Cn3cc(CCO)nn3)CC2)nc(N2CCN(C(=O)[C@H](C)n3cc(CCCN=C(N)N)nn3)CC2)n1	5	·	28	·	·	·	1	3
COc1ccc(N(CC(=O)N/N=C/c2ccc(OC)c(OC)c2)S(=O)(=O)c2ccccc2)cc1	-5	-4	-2	i	-1	-6	0	1
CCOC(=O)c1ccc(-c2c(-c3ccc4c(c3)OCO4)noc2C)cc1F	-7	9	-4	i	·	-2	-6	0
CC1CC(=O)c2cnc(NCc3ccco3)nc2C1 (stereo not given)	-7	-5	-153	i	-1	-6	0	1
NC(=O)CSc1nnc(Cc2ccc3c(c2)OCO3)o1	·	-6	-9	i	-6	3	4	11
Cc1cccc(OCCCC(=O)Nc2ccc(S(N)(=O)=O)cc2)c1C	·	3	14	i	24	10	4	-2
CCN1C(=O)c2cccc3c(S(=O)(=O)N(C)C)ccc1c23	9	·	16	·	·	·	6	7
CN(C(=O)CSc1nnc(-c2cccnc2)n1-c1ccccc1F)C1CCS(=O)(=O)C1 (stereo not given)	-5	39*	-11	i	-5	59*	1	-4	eIF4H inh retest=99*;PABP polyA inh retest=80*
C=C1C[C@H](O)[C@@H]2[C@H](OC(=O)[C@H]2C)[C@H]2[C@H](C)[C@@H](O)C[C@@H]12	-19	·	-55	·	-6	·	1	1
O=C(NCCC1=CCCCC1)C1CCC(CNS(=O)(=O)c2ccccc2)CC1 (stereo not given)	·	-8	-16	i	-9	29	-3	1
CC(=O)n1nc(-c2cccc(C)c2)nc1SCC(=O)Nc1ccccc1	-4	-1	-74	i	-7	-2	0	-5
COc1ccccc1NC(=O)CCC(=O)O	-1	-7	-47	i	1	-6	4	5
CC(Oc1cccc(NC(=O)c2cccs2)c1)C(=O)c1ccccc1 (stereo not given)	2	-5	5	i	-6	0	3	-4
COC(=O)CC(NS(=O)(=O)c1cccs1)c1cccc2ccccc12 (stereo not given)	·	-9	-7	i	-2	0	-2	-1
COc1ccc(/C=C2\CCCc3c2nc2ccccc2c3C(=O)OCC(=O)c2c(N)n(C)c(=O)n(C)c2=O)cc1	·	?	·	i	9	1	·	·
c1ccc2c(c1)CCN(CCCNc1nc3ccccc3n3cnnc13)C2	1	1	8	·	·	-2	3	3
CCN(C(=O)COC(=O)CCn1c(C)csc1=O)c1c(N)n(Cc2ccccc2)c(=O)[nH]c1=O	-12	·	2	·	·	·	-2	3
COc1ccc(OC)c(S(=O)(=O)N2CCN(C)CC2c2ccccc2)c1 (stereo not given)	-16	·	-240	·	-17	·	0	0
Cc1ccc(OCCC(=O)OCC(=O)NCc2ccccc2)cc1	·	·	-18	i	-5	·	-1	2

At a glance, some entries already given.
SMILES	Yeast UUG start	eIF4H inh	HIV Env fusion	Rce1 inhib	CSC inhib	PABP polyA inh	MT1-MMP act inh	MT1-MMP act inh RFP	others
Cc1cccc(OCCCC(=O)Nc2ccc(S(N)(=O)=O)cc2)c1C	·	3	14	i	24	10	4	-2
CCN1C(=O)c2cccc3c(S(=O)(=O)N(C)C)ccc1c23	9	·	16	·	·	·	6	7
CN(C(=O)CSc1nnc(-c2cccnc2)n1-c1ccccc1F)C1CCS(=O)(=O)C1 (stereo not given)	-5	39*	-11	i	-5	59*	1	-4	eIF4H inh retest=99*;PABP polyA inh retest=80*
C=C1C[C@H](O)[C@@H]2[C@H](OC(=O)[C@H]2C)[C@H]2[C@H](C)[C@@H](O)C[C@@H]12	-19	·	-55	·	-6	·	1	1
O=C(NCCC1=CCCCC1)C1CCC(CNS(=O)(=O)c2ccccc2)CC1 (stereo not given)	·	-8	-16	i	-9	29	-3	1
CC(=O)n1nc(-c2cccc(C)c2)nc1SCC(=O)Nc1ccccc1	-4	-1	-74	i	-7	-2	0	-5
COc1ccccc1NC(=O)CCC(=O)O	-1	-7	-47	i	1	-6	4	5
CC(Oc1cccc(NC(=O)c2cccs2)c1)C(=O)c1ccccc1 (stereo not given)	2	-5	5	i	-6	0	3	-4
COC(=O)CC(NS(=O)(=O)c1cccs1)c1cccc2ccccc12 (stereo not given)	·	-9	-7	i	-2	0	-2	-1
COc1ccc(/C=C2\CCCc3c2nc2ccccc2c3C(=O)OCC(=O)c2c(N)n(C)c(=O)n(C)c2=O)cc1	·	?	·	i	9	1	·	·
c1ccc2c(c1)CCN(CCCNc1nc3ccccc3n3cnnc13)C2	1	1	8	·	·	-2	3	3

Later entries.
SMILES	Yeast UUG start	eIF4H inh	HIV Env fusion	Rce1 inhib	CSC inhib	PABP polyA inh	MT1-MMP act inh	MT1-MMP act inh RFP	others
COC(=O)[C@@H]1C[C@@H]2CC[C@@H](O)C[C@@H]2N1Cc1ccc(N2CCN(C)CC2)cc1	-10	10	-4	i	13	-8	-1	0
Cc1ccc(C(=O)OCC(=O)Nc2ccc3c(c2)OCO3)cc1S(=O)(=O)N1CCOCC1	-20	-4	-45	i	-15	8	-3	1
CCOc1cc(C2C(C(=O)OC)=CN(Cc3ccc(Cl)cc3)C=C2C(=O)OC)ccc1O	·	-11	10	i	12	-12	-6	-8
CCCCC(=O)Nc1cccn2ncnc12	·	-6	-9	i	-3	-6	-8	-5
Cc1cnc(C(=O)OCc2c(C)cc(C(C)(C)C)cc2C)cn1	-12	-12	-1	i	12	10	1	0
COc1ccc(OC)c(NS(=O)(=O)c2cccc3cccnc23)c1	-15	-5	17	i	-7	-6	1	0
CC1(NC(=O)Cc2c(F)cccc2Cl)CCS(=O)(=O)C1 (stereo not given)	-6	·	·	·	-9	·	-3	2
Cc1ccc(Nc2nc(=O)c3cccnc3s2)c(Br)c1	-3	-7	4	i	22	-13	5	2
O=C(c1cnn2c(C(F)F)cc(-c3ccccc3)nc12)N1CCCCC1c1cccnc1 (stereo not given)	-4	-2	18	i	-6	3	-1	-5
COc1cc2ccccc2cc1C(=O)Nc1ccc2oc(=O)ccc2c1	-22	6	1	i	0	11	5	7
O=C1NC(C(=O)O)=CC(c2cccc(Cl)c2Cl)N1 (stereo not given)	-9	·	6	·	-12	·	4	6
O=C(Cn1nnc(-c2ccccc2NC(=O)c2cccs2)n1)Nc1ccccc1	·	-3	·	i	28	-8	0	4
COc1cc(NC(=O)C2C3CCC(O3)C2C(=O)O)cc(OC)c1 (stereo not given)	-10	6	-6	i	-1	3	8	4
c1csc(-c2nnc(N3CCCCCC3)c3ccccc23)c1	·	-7	-12	i	0	-6	2	4
CN(C)S(=O)(=O)c1cccc(NC(=O)COC(=O)c2cccc(S(=O)(=O)N3CCc4ccccc4C3)c2)c1	-7	-12	-1	i	1	15	-6	-1
COC(=O)C1=C(C)N(c2ccc(C(=O)OC)cc2)C(=O)C1	3	-4	-134	i	-7	2	1	8
CC(=O)NS(=O)(=O)c1ccc2c(c1)C(=O)c1cc(S(=O)(=O)NC(C)=O)ccc1-2	-1	-3	-3	i	-4	20	0	5
COc1ccccc1Cn1c(=O)oc2ccc(C)cc21	-2	-10	11	·	9	2	1	6
O=C(NNC1CC(=O)N(c2ccc3c(c2)OCCO3)C1=O)c1ccc(Cl)cc1 (stereo not given)	·	34	-17	i	-6	-8	2	3
CCn1c(SCC(=O)Nc2ccccc2N2CCCCC2)nc2c1c(=O)n(C)c(=O)n2C	-8	-16	43	i	-8	15	4	-3
Cc1ccc(C(=O)NCCCNC(=O)c2ccccn2)cc1	-13	-19	5	i	-1	3	1	-1
CCn1c(SCC(=O)N2CCCC2)nc2c(c1=O)SCC2	-8	-9	-1	i	-4	-9	-1	5
COC(=O)c1c(C)[nH]c(O)c1C=Nc1ccc(C(C)C)cc1	-5	85*	-26	i	23	80*	-47	9
Cc1cc(C(=O)NCCC(c2ccccc2)c2ccccc2)c(C)o1	-11	0	-99	i	-10	12	-9	-1
CN1CCN(c2ccc(CNC(=O)c3ccc4c(c3)OCCO4)cc2)CC1	·	2	-6	i	-6	-3	2	6
CN(C)C(=O)c1cc(C(=O)c2ccc(Cl)cc2Cl)c[nH]1	-9	16	-13	i	·	0	-2	-8
CC(=O)NC(Cc1ccccc1)c1ccc2c(c1)OCCCO2 (stereo not given)	·	9	-1	i	-5	8	-1	-1
Cc1ccc(NC(=O)N2CCCC2C(=O)Nc2nnc(C(C)C)s2)cc1 (stereo not given)	-17	0	8	i	·	-8	3	3
CCOC(=O)CN(C(=O)CSc1nnc(C)n1-c1ccccc1)c1ccccc1	-7	-4	·	i	-1	3	-1	-1
C[C@H](CO)N1C[C@H](C)[C@@H](CN(C)S(=O)(=O)c2ccc(-n3cccn3)cc2)OCc2cn(nn2)CCCC1=O	-13	·	3	·	·	·	1	4
O=C(NC(=S)NCCN1CCOCC1)c1ccccc1Cl	-10	10	·	i	·	-3	-2	2
O=C(c1cccs1)N1CCN(S(=O)(=O)c2cccs2)CC1	·	8	0	i	·	-2	-2	4
CC1CN(C(=O)COc2ccc3c(-c4ccccc4)cc(=O)oc3c2)CC(C)O1 (stereo not given)	-11	·	-8	·	0	·	-3	1
CCOC(=O)c1c(Nc2ccccc2)sc(/C=C2\C=Nc3ccccc32)c1O	-2	?	·	i	1	?	-10	-6
Clc1cccc(-c2ccc(C=Nc3ccc(N4CCOCC4)cc3)o2)c1Cl	·	-11	30	i	·	-6	-4	-2
Cc1cc(Br)ccc1NC(=O)c1ccc(-n2cncn2)c([N+](=O)[O-])c1	-14	·	·	i	-3	·	4	-2
CCN(CC(=O)NCCCN1CCOCC1)S(=O)(=O)c1cc(Cl)ccc1Cl	-15	-5	-12	i	·	-8	2	2
O=C(NNc1ccc(Cl)cc1)c1cccs1	-36	-15	15	i	96*	0	3	-2
C/C(CC(=O)NCc1ccco1)=N\NC(=O)CC#N	·	6	-12	i	-17	-5	-3	3

Source: PubChem BioAssay (several laboratories)
